# Screening data: PubChem, ICCB-Longwood Screening Facility, Harvard Medical School
# LANA-nucl inh = LANA-nucleosome interaction inhibition; FITC-LANA1-23 / chicken nucleosome fluorescence polarization; stronger effect = lower value; z-score (concentration not given with the values); actives 0.3% (n = 51,000); AID 720717;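 active means both repeat wells score below -2 in polarization z-score versus plate sample wells, excluding overly bright wells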;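 further: 100 nL library stock added to about 30 µL; numbers are from one replicate; some results filed as inactive read as strong as hits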
#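 Test system: purified chicken nucleosomes with FITC-labelled LANA N-terminal peptide (1-23); Input: 240 nM purified chicken nucleosomes (480 nM peptide binding sites), final; Medium: TEN-BT buffer, pH 7.5; Timing: 10–45 min, room temperature; Technique: fluorescence polarization, 480 nm excitation, 535 nm parallel and perpendicular emission; Replication: duplicates.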
# BasE inh = inhibitors of Acinetobacter baumannii siderophore enzyme BasE. AID 485350. inhibition, % (no concentration beside the values). actives 0.1% (n = 84,000). purified BasE, fluorescence polarization binding displacement;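 active means both replicates above 25% with normal brightness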;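 further: 0% = negative plate control signal and 100% = positive plate control signal; stock transfer was 100 nL into about 30 µL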
# An asterisk follows results filed as active; x = no result given; & = joins results of further samples.
SMILES,LANA-nucl inh,BasE inh
CC(=O)Oc1ccccc1C(=O)N1CCN(c2ccccc2F)CC1,0.066,-1.9
CCOC(=O)C1=C(CC)NC2=C(C(=O)CCC2)C1c1ccccc1OCC (stereo not given),x,3.0
Cc1ccc(S(=O)(=O)N2CC(=NN=C(N)N)C2)cc1,-1.4,-0.2
COc1ccccc1-c1nnc(SCC2CNC(=O)O2)n1-c1ccccc1 (stereo not given),x,1.0
CN(C)C(=O)CSc1n[nH]c(-c2ccccc2)n1,1.8,-1.8
O=C(O)CSCC(=O)Nc1cc(C(F)(F)F)ccc1N1CCCC1,-0.26,x
C/C=C/C(=O)Nc1ccccc1Br,0.29,0.9
CN(CCO)c1c[nH]c(=O)[nH]c1=O,0.41,2.3
Cc1nc(/C(N)=N/OC(=O)c2cccc(Cl)c2)c(C(F)(F)F)o1,-1.2,1.3
O=C(O)C1(c2cccc(C(F)(F)F)c2)CCCC1,x,0.9
O=C1NCCN=C1CC(=O)c1ccccc1,x,2.1
CCc1ccc(OCc2nnc(SCC(N)=O)o2)cc1,0.41,0.7
CC1=C(C#N)C(=O)N(C)C(=O)/C1=C/c1ccc(-c2cccc(Cl)c2C)o1,-0.28,1.3
Cc1ccc(N2CC(C(=O)N3CCOCC3)CC2=O)cc1C (stereo not given),-0.54,-1.4
COc1ccc(CCn2nnc(-c3ccc(NC(C)=O)c(Cl)c3)n2)cc1,-0.74,-1.7
N#Cc1cc(N)ccc1Sc1cccc(C(F)(F)F)c1,-0.51,x
COc1cc2nc(CN(C)Cc3sccc3C)[nH]c(=O)c2cc1OC,x,2.3
Cc1ccc(-c2nnc(C3CCN(S(=O)(=O)c4ccc(C)cc4C)CC3)o2)cc1,-0.29,-2.9
O=C(Nc1ccc(SC(F)F)cc1)c1ccc(CO)cc1,x,-0.8
CC(NC(=O)c1cnc2n(c1=O)CCS2)C12CC3CC(CC(C3)C1)C2 (stereo not given),-0.25,0.5
CCOC(=O)N1CCN(CC(=O)Nc2ccc(F)c(F)c2F)CC1,x,1.3
CC1=C(C(=O)OC(C)C)C(c2ccc(C)o2)C2=C(CC(c3cccs3)CC2=O)N1 (stereo not given),-0.97,1.1
O=c1c2cc(-c3ccccc3)sc2[nH]c(=S)n1Cc1ccco1,x,-3.0
CN(C)CCn1nnnc1SCC1=C(C(=O)O)N2C(=O)[C@@H](NC(=O)Cc3csc(N)n3)[C@H]2SC1,-0.73,0.2
Cc1nc(C)c(CCNC(=O)C2CCCCC2)s1,-0.02,1.1
CCn1nc(C(=O)NCCc2ccc(OC)cc2)c2ccccc2c1=O,x,1.2
Cc1ccc2oc(=O)c3cnn(CC(=O)NCCC4=CCCCC4)c3c2c1,0.29,1.8
CNCCc1c(-c2ccccc2)n(-c2ccccc2)c2ccccc12,x,-3.7
CN(C)C(=O)CN1CCN(c2ccc(F)cc2)CC1,-0.54,-0.1
O=C(CC12CC3CC(CC(C3)C1)C2)N1CCC(O)(c2ccc(Cl)cc2)CC1,x,3.6
Nc1ccn(C2O[C@H](CO)[C@@H](O)[C@@H]2O)c(=O)n1 (stereo not given in full),-0.48&0.011,3.6
c1csc(-c2cc(N3CCOCC3)c3ccccc3n2)c1,0.15,-1.4
CSc1ccc(C(=O)O)cc1,x,3.7
Clc1ccc(CSc2cnc3ccccc3n2)cc1,0.53,x
COc1cc(NC(=O)c2cccc3c2C(=O)N(Cc2cccnc2)C3)cc(OC)c1OC,-0.25,3.1
N#Cc1c(F)cccc1NC(=O)CN1CCCCC1,-0.14,x
Cc1ccc(CS(=O)(=O)c2ncn[nH]2)cc1,0.94,x
CC1Cc2ccccc2N1C(=O)COC(=O)c1ccccc1NC(=O)c1ccco1 (stereo not given),x,3.8
Cc1cc2oc(=O)c3c(c2cc1OCC(N)=O)CCCC3,-0.46,0.7
O=C(NNC1=NCCC1)c1cccc(S(=O)(=O)Nc2ccc(Cl)cc2)c1,x,2.3
Nn1cnnc1SCc1ccc(F)cc1,0.31,-0.2
COC(=O)CNC(c1ccccc1)c1cc(Br)ccc1N=Cc1ccccc1O (stereo not given),x,0.8
CCCCn1cnc2c1c(=O)[nH]c(=O)n2CCC,x,-0.4
CCOC(=O)/C=c1\s/c(=C\c2ccccn2)c(=O)n1CC(=O)N1c2ccccc2CC1C (stereo not given),x,-1.2
CC(C)CCSc1nc2ccccc2n1Cc1cc(=O)n2ccsc2n1,x,1.2
COc1ccc(/C=C2\SC(=O)N(C)C2=O)cc1,-0.93,x
O=C(Cc1ccccc1)Nc1c2c(nn1-c1ccc(Cl)cc1)CSC2,x,1.4
Cc1ccccc1C(=O)Oc1c(-c2ccco2)oc2ccccc2c1=O,0.17,-0.8
Cc1ccc(Cn2cccc(C(=O)N3CCc4ccccc43)c2=O)cc1,-0.098,-0.2
C=CCn1c(C)cc(C(=O)CSC2=Nc3ccccc3C3CC=NN23)c1C (stereo not given),x,-0.9
CC(C)=CCCC(C)CN1CCC(O)CC1 (stereo not given),-0.45,0.4
COC(=O)c1cc(NC(=O)CSC2=NCCS2)cc(C(=O)OC)c1,0.61,0.5
Cc1ccc(N(CC(=O)O)S(=O)(=O)c2ccccc2)cc1,-1.1,1.1
CCN(CC)CCN(C)C1CCC(C)CC1 (stereo not given),-1.2,1.9
Cc1ccc(NC(=O)Nc2ccc(N(C)C)cc2)cc1,x,-0.9
C/C(=N\NC(=O)c1ccn[nH]1)c1cc(O)ccc1O,0.89,4.0
CCOC(=O)C1CCN(C(c2ccncc2)c2c(O)cc(C)n(Cc3cccnc3)c2=O)CC1 (stereo not given),0.6,0.2
Cc1cc2ncc(-n3cncn3)c(-c3ccccc3)n2n1,-0.2,x
O=c1oc2ccccc2n1CNc1cccc(Cl)c1,x,-0.3
CC(C)(C)c1cc(NC(=O)Nc2ccccc2)no1,x,-1.0

# Part of the list above in order of count of non-hydrogen atoms, descending:
SMILES,LANA-nucl inh,BasE inh
CCOC(=O)C1CCN(C(c2ccncc2)c2c(O)cc(C)n(Cc3cccnc3)c2=O)CC1 (stereo not given),0.6,0.2
CCOC(=O)/C=c1\s/c(=C\c2ccccn2)c(=O)n1CC(=O)N1c2ccccc2CC1C (stereo not given),x,-1.2
COC(=O)CNC(c1ccccc1)c1cc(Br)ccc1N=Cc1ccccc1O (stereo not given),x,0.8
C=CCn1c(C)cc(C(=O)CSC2=Nc3ccccc3C3CC=NN23)c1C (stereo not given),x,-0.9
CC(C)CCSc1nc2ccccc2n1Cc1cc(=O)n2ccsc2n1,x,1.2
O=C(Cc1ccccc1)Nc1c2c(nn1-c1ccc(Cl)cc1)CSC2,x,1.4
COC(=O)c1cc(NC(=O)CSC2=NCCS2)cc(C(=O)OC)c1,0.61,0.5
Cc1cc2ncc(-n3cncn3)c(-c3ccccc3)n2n1,-0.2,x
Cc1ccc(NC(=O)Nc2ccc(N(C)C)cc2)cc1,x,-0.9
C/C(=N\NC(=O)c1ccn[nH]1)c1cc(O)ccc1O,0.89,4.0
CCCCn1cnc2c1c(=O)[nH]c(=O)n2CCC,x,-0.4
COc1ccc(/C=C2\SC(=O)N(C)C2=O)cc1,-0.93,x
CCN(CC)CCN(C)C1CCC(C)CC1 (stereo not given),-1.2,1.9
Nn1cnnc1SCc1ccc(F)cc1,0.31,-0.2

# Later entries.
SMILES,LANA-nucl inh,BasE inh
O=C(Cc1cn2ccsc2n1)N/N=C1\CCCCC1C1CCCCC1 (stereo not given),x,-1.9
COc1ccc(CN(C)C(=O)Nc2ccccc2)cc1,-0.45,1.2
Cn1c(=Nc2ccccc2C(=O)O)sc2ccccc21,x,1.1
CCOC(=O)/C(=N\Nc1ccccc1)N1CCN(S(=O)(=O)c2cccc(Br)c2)CC1,x,4.4
O=C(COC(=O)c1ccccc1O)NCc1ccccc1,x,5.6
Cc1ccc(C)c(NC(=O)C(Sc2nnnn2Cc2cccs2)c2ccccc2)c1 (stereo not given),x,2.7
CCOC(=O)c1cnc2c(cnn2C)c1Cl,0.074,x
Clc1ccccc1CN1CCN(/N=C/C=C\c2ccco2)CC1,x,2.6
N=C1/C(=C\c2ccc(SCc3ccccc3)o2)C(=O)N=C2SC(CC(=O)N3CCOCC3)=NN12,1.3,2.0
O=C(CC1C(=O)NCCN1C(=O)Nc1ccccc1)Nc1cccc(C(F)(F)F)c1 (stereo not given),-0.29,3.2
COc1ccc(S(=O)(=O)N(Cc2ccco2)Cc2nnc(-c3cccs3)o2)cc1,x,1.9
CC(C)(C)c1noc2nc(-c3cccs3)cc(C(F)(F)F)c12,x,5.0
NC(=O)CNC(=O)c1ccc(C(F)(F)F)cc1,x,1.3
COc1cc(Cl)c(C)cc1NC(=O)c1ccc2c(=O)n3c(nc2c1)CCC3,x,-0.1
COc1cc(C)c(C)cc1S(=O)(=O)N1CCCCC1c1cccnc1 (stereo not given),-0.25,-0.4
CCOC(=O)c1sc(-c2ccccc2)nc1OC(=O)c1ccc(C(F)(F)F)cc1,x,-0.5
CC1CCCCN1S(=O)(=O)c1ccc(C(=O)Nc2nnc(C3CC3)o2)cc1 (stereo not given),0.64,-0.4
O=C1Cc2cc(C(=O)CSc3nnc(-c4ccoc4)c(-c4ccoc4)n3)ccc2N1,0.74,0.4
Nc1ccc2oc(-c3ccccc3Br)nc2c1,0.17,1.6
COc1ccc(CN2CCSCC2)c(OC)c1OC,-0.14,-2.1
CCOC(=O)/C(C#N)=C/N1CCCC1c1cccs1 (stereo not given),0.47,-2.7
FC(F)(F)c1cccc(OCc2nnc3n2CCC3)c1,x,1.4
CCCCSCc1ccc(C(=O)O)o1,-0.24,-1.2
O=C(CN1C(=O)S/C(=C\c2ccccc2)C1=O)N1CCN(c2ccccc2)CC1,x,-1.6
O=C(N/N=C/c1ccccc1)NC1CCCCC1,x,2.3
CCn1c(=O)[nH]c(=O)c2c(C(F)(F)F)cc(C(F)(F)F)nc21,x,2.0
CC1CN(C(=O)c2ccc(Oc3ccccc3)cc2)CC(C)O1 (stereo not given),x,3.2
C=C1CC[C@@H](O)C/C1=C/C=C1\CCC[C@]2(C)[C@@H]([C@H](C)CCCC(C)C)CC[C@@H]12,0.32,-1.2
O=C1C2C(c3ccccc3)C=CC(c3ccccc3)C2C(=O)N1C1CCCCC1 (stereo not given),x,-0.7
Cc1cc(C)nc(NS(=O)(=O)c2ccc(N)cc2)n1,0.044&-0.34&0.57,-2.2&-2.3
CCOC(=O)C1CCN(C(=O)CCC(=O)NNc2nc3ccccc3c3nc(-c4ccccc4)nn23)CC1,-0.36,-1.6
CCOc1ccc(CN(C)C(=O)CNC(=O)C2CCCCC2)cc1,x,0.2
CS(=O)(=O)N/N=C/C=C/c1ccccc1,0.098,5.5
COc1cc2c(cc1OC)C(COc1ccc3c(C)cc(=O)oc3c1)N(C(=O)c1ccco1)CC2 (stereo not given),0.043,-0.9
CCN(CC)CCSc1nc2ccccc2c(=S)n1-c1ccccc1,x,-2.3
CCc1ccc(N2CC(C(=O)NCCCn3ccnc3)CC2=O)cc1 (stereo not given),x,1.5
c1ccc(CSc2nc3ccccc3n2Cc2ccccn2)cc1,x,0.7
O=C(Nc1cccc(Cl)c1N1CCOCC1)c1ccco1,0.14,-4.0
c1ccc(-c2nc(N3CCCCC3)nc3ccccc23)cc1,-0.16,2.2
COCc1cc(=O)[nH]c(-c2ccccc2)n1,-1.6,x
CCc1nnc(NC(=O)CN2CCN(c3ccccc3)CC2)s1,0.62,2.5
NC(=O)CCCCC1CCSS1 (stereo not given),x,1.4
COc1ccc(C(=O)NCC(C)C)c(OC)c1,0.16,0.4
CC1CN(S(=O)(=O)c2cccs2)C(C)CN1S(=O)(=O)c1cccs1 (stereo not given),0.27,-2.2
Cc1ccc(NC(=O)Cn2c(=O)c(C#N)c3n(c2=O)CCC3)cc1,x,-1.8
CN1CCN(c2cc(-c3cccnc3)nc3ccccc23)CC1,-0.57,x
O=C(CCCn1c(=O)c2cccn2c2ccccc21)NCCN1CCCCCC1,0.035,2.0
Cc1ccc(-n2c(C)cc(C=Nc3ccc(-c4nnc5n4CCCCC5)cc3)c2C)cc1,x,0.9
O=C(Oc1ccccc1)c1cccc(COC(=O)c2cnccn2)c1,-0.24,2.6
CCOc1ncccc1C(=O)OCc1cn2cc(Cl)ccc2n1,x,1.0
CCC(=O)N1c2ccccc2-c2nnc(SC)nc2OC1c1ccsc1 (stereo not given),-2.1,2.9
CCS(=O)(=O)c1ccc2oc(CN3C(=O)S/C(=C\c4ccccc4Cl)C3=O)nc2c1,x,-0.5
Cc1ccc2oc(=O)c(/C=C(\O)C(C)(C)C)nc2c1,-0.2,-2.6
COCc1cc(C)nc(SCCN(C)C)c1C#N,-0.76,0.4
Fc1ccc(-c2noc3ncnc(NCC4CCCO4)c23)cc1 (stereo not given),x,-1.0
Cc1ccc2[nH]c(O)c(N=NC(=O)c3nc4ccccc4c(=O)[nH]3)c2c1,x,2.9
CCN(CC)S(=O)(=O)c1ccc(C(=O)NNc2nc3c(OC)ccc(OC)c3s2)cc1,-0.42,1.0
O=C(O)C1C2C=CC(C2)C1C(=O)NNc1ncnc2ccccc12 (stereo not given),x,-0.2
CC(=O)Nc1ccc(C(=O)COc2ncnc3c2cnn3-c2ccccc2)cc1,x,2.1
O=C(NC1CCCCC1)NC1CCN(Cc2nnnn2Cc2ccc(F)cc2)CC1,-0.17,0.0
O=C1CCC(=O)N1CN(CN1C(=O)CCC1=O)C1CCCCC1,-0.66,2.2

# Only part of the results is shown; count on the stated rates, not on these rows.
